# Bioassay records as filed in PubChem.
# total CFTR = total CFTR protein upregulators, primary screen, cell-based, HeLa F508del-CFTR, immunofluorescence, viability (AID 1224863) | calls, or highest fold increase where a dose series was run | actives 0.1% (n = 10,000) | HeLa F508del-CFTR, immunofluorescence total CFTR, 24 h; by the record results were divided by relative cell number; some inactives read as strong as hits; in the data nearly all actives have a first-pass fold increase above 1.5; a few of its hits are not listed in these tables;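 also: total CFTR protein by anti-CFTR immunofluorescence in fixed cells; first pass at 25 µM or 10 µg/mL by library and series up to twice that; 1 = untreated cells; first-pass hits also needed half or more of the cells alive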
# total CFTR fold 25 µM = recorded beside total CFTR, whose call it bears; fold increase; measured here: primary screen single dose 25 uM; library dosed in µM
# total CFTR fold 10 ug/mL = second read-out of total CFTR, no call of its own (marks repeat the call); fold increase; measured here: primary screen 10 ug/mL
# total CFTR viability 25 µM = recorded beside total CFTR, whose call it bears; viability, %; measured here: primary viability 25 uM; library dosed in µM;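 0% = killed and 100% = untreated cells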
# total CFTR viability 10 ug/mL = further read-out of total CFTR, marked with its call; viability, %; measured here: primary viability 10 ug/mL;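 0% = killed and 100% = untreated cells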
# * = called active by the depositor; i = inactive; x = not tested or not shown; & = joins results of further samples. Some of the compounds tested. The share of hits here may be higher or lower than overall.
SMILES,total CFTR,total CFTR fold 10 ug/mL,total CFTR viability 10 ug/mL,others
CCc1nc(Sc2ccc(C(F)(F)F)cn2)n[nH]1,i,0.94,98.0,
CC(C)(Oc1ccc(Cl)cc1)C(=O)O,i,x,x,total CFTR fold 25 µM=1.14;total CFTR viability 25 µM=110.0
O=[N+]([O-])c1ccc(/C=C(\c2ccccc2)c2nc3ccccc3[nH]2)cc1,i,1.02,103.0,
O=S(=O)(NC1CCOc2ccccc21)c1ccc(OC(F)(F)F)cc1 (centres undefined),i,1.03,97.0,
CC(C)[C@H](N)C(=O)OCC(CO)OCn1cnc2c(=O)[nH]c(N)nc21 (some centres undefined),i,x,x,total CFTR fold 25 µM=1.23;total CFTR viability 25 µM=95.0
O=C1C(=O)N(CN(Cc2ccccc2)CC(F)(F)F)c2cc(Br)ccc21,i,1.11,102.0,
O=C(C1COc2ccccc2O1)N1CCN(CN2C(=O)C(=O)N(C3CCCC3)C2=O)CC1 (centres undefined),i,1.06,103.0,
COc1ccc(-c2noc(CSc3ccc(F)c(Cl)c3)n2)cc1,i,0.94,87.0,
CCOCCCNc1sc(S(C)(=O)=O)nc1S(=O)(=O)c1ccc(C)cc1,i,1.05,93.0,
CC(=O)Nc1nc(CSc2nnc(C3CC3)n2C2CC2)cs1,i,1.11,72.0,
COc1ccc(C2Sc3ccccc3N(CCN(C)C)C(=O)C2OC(C)=O)cc1 (centres undefined),i,x,x,total CFTR fold 25 µM=0.94;total CFTR viability 25 µM=103.0
COc1cc(C#N)ccc1OCCN(C)C,i,0.92,106.0,

# A run of entries from the list above:
SMILES,total CFTR,total CFTR fold 10 ug/mL,total CFTR viability 10 ug/mL,others
CCOCCCNc1sc(S(C)(=O)=O)nc1S(=O)(=O)c1ccc(C)cc1,i,1.05,93.0,
CC(=O)Nc1nc(CSc2nnc(C3CC3)n2C2CC2)cs1,i,1.11,72.0,
COc1ccc(C2Sc3ccccc3N(CCN(C)C)C(=O)C2OC(C)=O)cc1 (centres undefined),i,x,x,total CFTR fold 25 µM=0.94;total CFTR viability 25 µM=103.0
COc1cc(C#N)ccc1OCCN(C)C,i,0.92,106.0,

# Next records
SMILES,total CFTR,total CFTR fold 10 ug/mL,total CFTR viability 10 ug/mL,others
O=C(c1cc2c(s1)CCC2)N1CCc2sccc2C1,i,1.01,83.0,
CC(N=C(NC#N)Nc1ccncc1)C(C)(C)C (centres undefined),i,x,x,total CFTR fold 25 µM=1.01&1.04;total CFTR viability 25 µM=98.0&85.0
O=C(Cc1cccs1)N1CCN(S(=O)(=O)N2CCCCCC2)CC1,i,1.01,89.0,
N#Cc1c(NC(=O)CN2CCCC2)sc2c1CCC2,i,1.18,101.0,
CC(Sc1nnnn1Cc1ccco1)c1nnnn1-c1ccccc1 (centres undefined),i,1.1,97.0,
O=C(CNC(=O)c1cccs1)NCC(=O)NC1CC1,i,1.01,107.0,
COc1ccc(CN(C2CCS(=O)(=O)C2)S(=O)(=O)c2cccs2)cc1 (centres undefined),i,1,92.0,
CC(NC(c1ccc(F)cc1)c1ccc(F)cc1)c1ccc(Cl)cc1 (centres undefined),i,1.1,98.0,
Cc1nc(SCCOc2cccc(Br)c2)n[nH]1,i,1,92.0,
C=CCn1c(SCCn2c(=O)oc3ccccc32)nc2sc3c(c2c1=O)CCCC3,i,0.99,86.0,
CC(C)c1nn(CN(C)C(c2ccccc2)c2ccccc2)c(=S)n1C1CC1,i,1.02,91.0,
CSc1nnc(SC(C)c2nnc(-c3ccc([N+](=O)[O-])cc3)o2)s1 (centres undefined),i,0.95,105.0,

# By substructure: the entries above with a cyano group.
SMILES,total CFTR,total CFTR fold 10 ug/mL,total CFTR viability 10 ug/mL,others
COc1cc(C#N)ccc1OCCN(C)C,i,0.92,106.0,
CC(N=C(NC#N)Nc1ccncc1)C(C)(C)C (centres undefined),i,x,x,total CFTR fold 25 µM=1.01&1.04;total CFTR viability 25 µM=98.0&85.0
N#Cc1c(NC(=O)CN2CCCC2)sc2c1CCC2,i,1.18,101.0,

# Additional records.
SMILES,total CFTR,total CFTR fold 10 ug/mL,total CFTR viability 10 ug/mL,others
Cc1cc(=O)[nH]c(=S)[nH]1,i,x,x,total CFTR fold 25 µM=0.96;total CFTR viability 25 µM=94.0
c1ccc(-n2ncc(CN3CCCC(c4ccn(Cc5cnn(-c6ccccc6)n5)n4)C3)n2)cc1 (centres undefined),i,1.05,87.0,
c1ccc(-c2ccc(-c3csc(N4CCCc5ccccc54)n3)cc2)cc1,i,0.98,101.0,
C[C@]12CCC3c4ccc(O)cc4C[C@@H](CCCCCCCCCS(=O)CCCC(F)(F)C(F)(F)F)C3C1CC[C@@H]2O (some centres undefined),i,x,x,total CFTR fold 25 µM=0.96;total CFTR viability 25 µM=96.0
Cn1ncc2c(=O)n(CC(=O)C34CC5CC(CC(C5)C3)C4)cnc21,i,0.95,94.0,
CCCCC(CC)COC(=O)CC(C(=O)OCC(CC)CCCC)S(=O)(=O)O (centres undefined),i,x,x,total CFTR fold 25 µM=0.6;total CFTR viability 25 µM=11.0
CC(=O)[C@]1(O)Cc2c(O)c3c(c(O)c2[C@@H](O[C@H]2C[C@H](N)[C@H](O)[C@H](C)O2)C1)C(=O)c1ccccc1C3=O,i,x,x,total CFTR fold 25 µM=0.77&1.01;total CFTR viability 25 µM=9.0&10.0
CN1CCN(C(C)(C)CNCc2ccc(Br)cc2F)CC1,i,1.13,101.0,
O=S(=O)(NCc1ccccc1S(=O)(=O)N1CCCCC1)c1cccc2nsnc12,i,0.97,108.0,
O=S(=O)(Cc1ccccc1)NC1CCSc2ccccc21 (centres undefined),i,1.09,91.0,
CCOc1cc(Br)c(CN2C(=O)NC(C)(c3ccco3)C2=O)cc1OCC (centres undefined),i,0.79,86.0,
N#C/C(=C/c1ccc(Cl)s1)c1ccno1,i,1,98.0,
COc1ccc(S(=O)(=O)N2CCN(S(=O)(=O)N3CCN(C)CC3)CC2)cc1OC,i,1.08,101.0,
CN(Cc1nc2ccccc2[nH]1)c1ncnc2c1oc1ccccc12,i,0.87,69.0,
CN(C)S(=O)(=O)c1cccc(COn2nnc3ccccc32)c1,i,0.92,88.0,
CC(C)OCCCNC(=O)c1ccc(Cl)s1,i,1.09,99.0,
CC(C)(C)OC(=O)Nc1ccc(F)cc1N,i,0.96,76.0,
Nc1nc(N)c2nc(CNc3ccc(C(=O)NC(CCC(=O)O)C(=O)O)cc3)cnc2n1 (centres undefined),i,x,x,total CFTR fold 25 µM=0.93;total CFTR viability 25 µM=72.0
Cc1c(C)c(C)c(S(=O)(=O)NC2CCS(=O)(=O)c3ccccc32)c(C)c1C (centres undefined),i,1,90.0,
CC(C)CN1C(=O)C(=O)N(CC(=O)N2N=C3/C(=C\c4ccco4)CCCC3C2c2ccco2)C1=O (centres undefined),i,0.92,89.0,
CC(C)C(CNc1ncccc1[N+](=O)[O-])N1CCOCC1 (centres undefined),i,0.87,94.0,
Cc1nc(SC2CC(C)OC2=O)c2c3c(sc2n1)CCCC3 (centres undefined),i,0.97,101.0,
CN(CC(=O)NC1CC1)S(=O)(=O)c1ccc(Br)s1,i,1.06,90.0,
c1nc(Sc2nnc(CN3CCCCC3)o2)c2c3c(sc2n1)CCC3,i,1.07,104.0,
COc1ccc2c(CSc3nnc(-c4sc5ccccc5c4Cl)o3)cc(=O)oc2c1,i,1,97.0,
c1ccc(-n2c(Sc3ccc4nnnn4n3)nnc2-c2ccncc2)cc1,i,0.95,96.0,
O=C(Nc1nc(-c2cccs2)c(-c2cccs2)s1)C1CCCC1,1.72,1.85,70.0,
CC1(C(=O)N2CCC(C(N)=O)CC2)CC1(Cl)Cl (centres undefined),i,1,107.0,
CN(Cn1ncn(C)c1=S)C1CCCc2ccccc21 (centres undefined),i,1.14,89.0,
O=S(=O)(NCc1ccc(S(=O)(=O)N2CCCC2)s1)c1ccc(Cl)cc1,i,0.9,86.0,
O=C(c1ccc(F)cc1)c1cc2cc(Br)ccc2o1,i,1,99.0,
CCCn1nnnc1COC(=O)c1[nH]c(C)c(C(=O)OC(C)C)c1C,i,0.93,95.0,
CN(C)CCC(c1ccc(Br)cc1)c1ccccn1 (centres undefined),i,x,x,total CFTR fold 25 µM=1.02;total CFTR viability 25 µM=102.0
O=S(=O)(NCC1(c2ccccc2)CC1)c1ccc2c(c1)CCC2,i,0.96,99.0,
COc1ccc(OC)c(C(=O)COC(=O)C23CC4CC(CC(Cl)(C4)C2)C3)c1,i,0.9,86.0,
CC(C)N(CCSc1nc2c3ccccc3nc(=S)n2[nH]1)C(C)C,i,1.16,97.0,
CC1(NC(=O)Cc2coc3cc4c(cc23)CCC4)CCS(=O)(=O)C1 (centres undefined),i,1.03,105.0,
CS(=O)(=O)Nc1nnc(N)s1,i,1.04,110.0,
CC(C)(C)C(=O)Cn1cnc(C#N)n1,i,0.97,97.0,
CCN1CCN(c2cc3c(cc2F)c(=O)c(C(=O)O)cn3C2CC2)CC1,i,x,x,total CFTR fold 25 µM=1.03&1.12;total CFTR viability 25 µM=94.0&87.0
COC(=O)c1cc(S(=O)(=O)NC(C)C(C)C)c(Br)s1 (centres undefined),i,0.96,104.0,
CN(C)S(=O)(=O)N1CCN(Cc2noc(-c3ccc(F)cc3)n2)CC1,i,0.86,90.0,
CC(NS(=O)(=O)c1ccc2c(c1)OCCCO2)c1ccc2c(c1)CCCC2 (centres undefined),i,1.03,95.0,
COc1ccc(C(CNS(=O)(=O)C2=Cc3ccccc3CC2)N2CCCC2)cc1 (centres undefined),i,1.06,90.0,
Nc1nc(N)nc(-c2cc(Cl)ccc2Cl)n1,i,x,x,total CFTR fold 25 µM=1.06;total CFTR viability 25 µM=97.0
CN(C)c1ccc(/C=C/c2ccc(S(=O)(=O)N3CCCC3)s2)cc1,i,1.06,113.0,
COc1cc(C2/C(=C(\O)c3ccc(OCC(C)C)cc3C)C(=O)C(=O)N2CCN(C)C)ccc1O (centres undefined),i,0.96,80.0,
CCC(C)C(=O)NCC(=O)NC(C)C12CC3CC(CC(C3)C1)C2 (centres undefined),i,1.04,97.0,
CC(=O)NC(CC(=O)Nc1nnc(CC(C)C)s1)c1cccs1 (centres undefined),i,0.97,103.0,
CCN(CC)S(=O)(=O)N1CCN(S(C)(=O)=O)CC1,i,1.03,100.0,
O=c1ccc2cc(S(=O)(=O)N3CCCc4cc(F)cc(F)c43)ccc2o1,i,1.09,92.0,
O=C(O)Cn1c(=O)n(C2=CCCCC2)c2ccccc21,i,1.05,103.0,
Cc1cc(OCC(=O)N2CC3(C)CC2CC(C)(C)C3)cc(C(C)C)c1 (centres undefined),i,1.06,89.0,
CS(=O)(=O)N1CCC(NC(=O)C2CC(=O)N(c3ccc4c(c3)CCC4)C2)CC1 (centres undefined),i,0.92,73.0,
CC(=O)OCC(=O)[C@@]1(O)CCC2C3CCC4=CC(=O)C=CC4(C)C3[C@@H](O)C[C@@]21C (some centres undefined),i,x,x,total CFTR fold 25 µM=1.02;total CFTR viability 25 µM=91.0
CCc1nnc(NC(=O)CCC2CCCO2)s1 (centres undefined),i,1,109.0,
C=CCn1c(=S)[nH]c2cc(C(=O)NC3CC4CC3C3CCCC43)ccc2c1=O (centres undefined),i,0.95,89.0,
O=S(=O)(NCCN1CCOCC1)c1ccc2c(c1)CCCC2,i,0.96,107.0,
CCOC(=O)c1c(NC(=O)CN2C(=O)CC3(CCCCC3)C2=O)sc(CC)c1C,i,1,106.0,
NC(=O)c1ncn([C@@H]2O[C@H](CO)[C@@H](O)[C@H]2O)n1,i,x,x,total CFTR fold 25 µM=0.98&1.04&0.85;total CFTR viability 25 µM=102.0&88.0&78.0

# (list continues)
SMILES,total CFTR,total CFTR fold 10 ug/mL,total CFTR viability 10 ug/mL,others
CN(C)S(=O)(=O)N1CCN(C(=O)C2CCCN(C(=O)OC(C)(C)C)C2)CC1 (centres undefined),i,0.9,90.0,
O=S(=O)(O)NC1CCCCC1,i,x,x,total CFTR fold 25 µM=1.15&1.11;total CFTR viability 25 µM=117.0&106.0
COc1cc(C(=O)OCCCN2CCCN(CCCOC(=O)c3cc(OC)c(OC)c(OC)c3)CC2)cc(OC)c1OC,i,x,x,total CFTR fold 25 µM=1.03&1.03;total CFTR viability 25 µM=100.0&97.0
NCCCS(=O)(=O)O,i,x,x,total CFTR fold 25 µM=0.96;total CFTR viability 25 µM=101.0
COc1ccc2c(CN3C(=O)NC(c4ccccc4)(c4ccccc4)C3=O)cc(=O)oc2c1,i,1.31,86.0,
CC1CCCCN1CN1C(=O)NC2(CCCCC2)C1=O (centres undefined),i,1,102.0,
NC(=O)C(c1ccccc1)(c1ccccc1)C1CCN(CCc2ccc3c(c2)CCO3)C1 (centres undefined),i,x,x,total CFTR fold 25 µM=1.3;total CFTR viability 25 µM=90.0
CC(C)(O)c1ccccc1CC[C@@H](SCC1(CC(=O)O)CC1)c1cccc(/C=C/c2ccc3ccc(Cl)cc3n2)c1,i,x,x,total CFTR fold 25 µM=0.97;total CFTR viability 25 µM=96.0
COc1ccc(Cc2nc(Sc3ncc(C(F)(F)F)cc3Cl)c3c4c(sc3n2)CCC4)cc1OC,i,1.11,104.0,
Fc1ccc(Nc2nc(CN3CCOCC3)nc3sc4c(c23)CCC4)cc1Cl,i,0.95,94.0,
N#Cc1cc([N+](=O)[O-])ccc1N1CCN(S(=O)(=O)c2ccc3c(c2)OCCO3)CC1,i,0.99,87.0,
Cc1cc(NC(=O)CSc2nc(C)c(C)n2C2CCCC2)no1,i,0.86,77.0,
O=C1C(=O)N(C2CC2)C(=O)N1CN1CCc2ccccc2C1,i,1,99.0,
Cc1cc2nc(Sc3nnnn3CC3CCCO3)c3ccccc3n2n1 (centres undefined),i,0.9,72.0,
Brc1ccccc1CNCc1ccc(Cn2cncn2)cc1,i,0.93,92.0,
